Sfp PPTase inh: inhibitors of Bacillus subtilis Sfp phosphopantetheinyl transferase. Q9F4F7. AID 1490. Biochemical Sfp PPTase activity, qHTS. actives 3.5% (n = 310,000). Potency, µM, inactives show max response, negative = inhibition, usual class: inhibitors; active = well fitted inhibition curve with a large enough effect; inconclusive = small, poorly fitted or top-dose-only effect, or another doubt; inactive = no such curve, though single readings can be large or run the other way;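 note: the enzyme is Sfp with the accession as filed and its product quenches rhodamine fluorescence; potency is the fitted concentration of half-maximal effect; 0% = enzyme reaction without inhibitor and -100% = no enzyme wells; top concentration of the series not given in the record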
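Sfp 15 nM + cpd, 15 min RT; start w/ rhodamine-CoA 5 uM, BHQ-2-YbbR 12.5 uM (final); 50 mM Hepes pH 7.6, 10 mM MgCl2, 0.01% NP-40, 0.01% BSA; read 525/598 nm at 0 and 30 min.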
Menin-MLL FL inh: menin-MLL binding inhibition, fluorescein peptide | Fluorescence polarization, fluorescein-MLL peptide displacement from menin | FP activity change, % at 61.4 µM | 290,000 tested, under 10 active | AID 1766; inconclusive = falling polarisation curve, or a change in total fluorescence; inactive = total fluorescence flat and polarisation flat or rising; no compound was filed as active; the % refers to the polarisation; negative = inhibition;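 note: % of control where 0% means no effect; inhibitors lower the polarisation; unlabelled MLL peptide was the positive control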
gsp antag: gsp mutant antagonism | actives 0.4% (n = 340,000) | gsp-mutant cells, cAMP HTRF, 30 min; control for the full effect not named in the record | AID 624288 | Potency, µM (doses to about 76.9 µM), inactives show top-dose activity change, negative = inhibition, most hits filed as inhibitors; active = falling curve of any shape with a large fitted effect; inconclusive = falling curve, mostly with a smaller effect; inactive = flat or rising curve; cell line not stated here;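 note: intracellular cAMP measured with PDE inhibitor Ro 20-1724 present during compound exposure; potency is the fitted concentration of half-maximal effect; % is set by controls: 0 for no effect and ±100 for the full control effect; nearly all actives have a fitted effect of over 65% in size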
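G418-selected cells were plated in DMEM/10% FBS for 16-24 h at 37C, then treated with compounds plus the PDE inhibitor […] (300 uM solution added) for 30 min at 37C. Intracellular cAMP was measured by HTRF after 30 min lysis at room temperature.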
TRPV1 PAM: potentiators of human vanilloid receptor 1 (TRPV1). Q8NER1. TRPV1-expressing cells, Fluo-8 calcium influx, capsaicin EC20 potentiation; host cell line not named in the record; control for the full effect not named in the record. potentiation, % at 8.33 µM. actives 0.02% (n = 320,000). AID 540277; active means potentiation above 80%; inconclusive means 30% to 80%; inactive means below 30%; note: 0% is about no effect
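TRPV1-expressing cells were cultured overnight at 35.5C and loaded with Fluo-8 calcium dye for 40 to 90 min at room temperature. After a 10 s baseline, compound was added and calcium influx was read kinetically for 3 min (ex 480/em 520 nm).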
D2 potentiator: positive allosteric modulators of human D2 dopamine receptor; P14416; DiscoveRx D2 beta-arrestin cells, luminescence, 90 min; 100% = 57 uM dopamine signal; potentiation, % (concentration not given with the values); actives 0.23% (n = 360,000); active = potentiation of 50% or more; inconclusive = 30% to 50%; inactive = 30% or less;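 note: compound concentration not given in the record; tested on top of an EC20 dose of dopamine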
Target sequence (P14416 whole entry, looked up): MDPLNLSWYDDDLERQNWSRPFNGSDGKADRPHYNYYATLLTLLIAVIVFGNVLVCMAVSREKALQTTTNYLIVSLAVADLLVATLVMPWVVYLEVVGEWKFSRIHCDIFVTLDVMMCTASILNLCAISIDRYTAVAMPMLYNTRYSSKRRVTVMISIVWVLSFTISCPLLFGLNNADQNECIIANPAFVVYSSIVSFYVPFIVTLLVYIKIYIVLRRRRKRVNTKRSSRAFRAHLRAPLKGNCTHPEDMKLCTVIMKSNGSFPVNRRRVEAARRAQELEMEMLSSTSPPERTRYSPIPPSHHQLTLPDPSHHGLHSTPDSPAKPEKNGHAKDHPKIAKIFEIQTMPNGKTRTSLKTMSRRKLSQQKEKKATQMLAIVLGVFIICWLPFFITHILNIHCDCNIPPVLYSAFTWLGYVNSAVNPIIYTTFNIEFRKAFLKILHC
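D2 cells co-treated with compound plus 50 nM dopamine (EC20) for 90 min at 37 deg C to detect potentiation. Beta-arrestin recruitment was read as enzyme-fragment luminescence after 1 h at ambient temperature. Full response was set by 57 uM dopamine.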
gsp ag: agonists of gsp mutant (McCune-Albright syndrome); gsp mutant cells, cAMP HTRF, 30 min; control for the full effect not named in the record; Potency, µM (series often up to 76.9 µM), inactives show at the highest dose activation (cAMP increase), hits mostly activators; actives 0.13% (n = 340,000); AID 624287; active = well fitted activation curve with a large enough effect; inconclusive = small, poorly fitted or top-dose-only effect, or another doubt; inactive = no such curve, though single readings can be large or run the other way; cell line not stated here;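 note: phosphodiesterase inhibitor Ro 20-1724 added with compounds to block cAMP breakdown; potency is the fitted concentration of half-maximal effect; nearly all actives have a fitted effect of over 60% in size; about a fifth of the inactives were tested at one dose only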
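Cells stably selected in G418 were plated at 2000/well, grown 16-24 hr, then given compounds in DMSO with the PDE inhibitor […] (300 uM solution added) for 30 min at 37C; cAMP was read by HTRF.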
ClpP mod: qHTS Assay for Activators of ClpP; ATP-dependent Clp protease proteolytic subunit (Bacillus subtilis (strain 168)), P80244; purified B. subtilis ClpP, FRET peptide cleavage, 20 min; Potency, µM (series often up to 57.5 µM), inactives show top-dose activity change, negative = active; actives 1.9% (n = 340,000); active = well fitted falling curve with a large enough effect; inconclusive = small, poorly fitted or top-dose-only effect; inactive = no such curve, though single readings can be large or run the other way; note: potency is the fitted concentration of half-maximal effect; the source files actives as falling curves though it sought activators and does not explain the sign; nearly all actives have a fitted effect of over 65% in size; many hits overshoot -100%
Target sequence (P80244 whole entry, looked up): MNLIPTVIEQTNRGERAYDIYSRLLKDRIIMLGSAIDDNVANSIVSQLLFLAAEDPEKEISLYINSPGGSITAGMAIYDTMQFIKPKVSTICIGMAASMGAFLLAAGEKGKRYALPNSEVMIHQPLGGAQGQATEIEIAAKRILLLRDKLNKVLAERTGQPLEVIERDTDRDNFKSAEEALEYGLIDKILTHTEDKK
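Buffer: 100 mM Tris/HCl pH8, 100 mM KCl, 0.05% low protease BSA, 2.5% glycerol, 0.01% Tween-20. ClpP 10 microg/mL final; 20 min RT; delta FRET normalized to ADEP and DMSO controls.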
* = called active by the depositor; ? = inconclusive; / = not tested or not shown; & = joins results of further samples; [ ] = another dose, or the depositor's remark.

SMILES | Sfp PPTase inh | Menin-MLL FL inh | gsp antag | TRPV1 PAM | D2 potentiator | gsp ag | ClpP mod
Cc1ccc2nc(C)cc(C(=O)N3CCCC(N4CCN(c5ccccc5C)CC4)C3)c2c1 (stereo unspecified) | 2.9% | 3.2 | -7.5% | -5.7 | -21.6 | -43.8% | -2.9%
COc1cc(OC)cc(C(=O)NNC(=O)NC2CCCCC2)c1 | -7.4% | 0.0 | 12.7% | -53.1 | -7.5 | 4.0% | -4.5%
CN1CCN(c2ccc(S(=O)(=O)N3CCOCC3)cc2NC(=O)CCc2ccccc2)CC1 | 1.2% | -0.3 | 3.4% | ? | -17.6 | -44.2%[inhibitor] | -4.4%
C/C(=N\Nc1cc(-c2ccccc2)nc(-c2ccc(Br)cc2)n1)c1cccc(N)c1 | / | / | -4.0% | / | -16.1 | -3.9% | ?
CC(C)(CNC(=O)CCC1CCCC1)CNC(=O)CCC1CCCC1 | 4.7% | / | -3.7% | -8.9 | -14.2 | -29.0% | 1.9%
O=C(N/N=C/c1cccnc1)c1ccccc1Cl | 7.9% | 0.3 | -4.6% | -8.2 | -7.9 | -1.4% | -1.3%
O=C(c1ccccc1Br)N1CCC(c2nc3ccccc3s2)CC1 | -9.2% | -3.5 | -20.8% | -11.8 | -55.9 | -1.0% | -1.0%
Cc1ccc(S(=O)(=O)C2CCCCC2=O)cc1 (stereo unspecified) | -4.7% | -2.2 | 3.3% | -0.8 | 2.7 | -13.0%[15.4 µM] | /
O=C(c1cc2nc(-c3cccs3)cc(C(F)(F)F)n2n1)N1CCCc2ccccc21 | -1.4% | 3.8 | -17.1% | -14.2 | -18.3 | 27.0% | -5.6%
O=C(c1ccccc1)N1CCC(c2nc(-c3ccc(S(=O)(=O)N4CCOCC4)cc3)no2)CC1 | 11.8% | 1.8 | -24.3% | -2.6 | -30.0 | -12.3% | 1.4%
CSc1nc2ccc(S(=O)(=O)N3CCc4ccccc43)cc2s1 | 7.9% | -2.4 | 4.7% | 26.5 | 1.1 | 9.9% | -1.2%
O=C(Cc1ccccc1[N+](=O)[O-])N1CCN(S(=O)(=O)c2ccccc2)CC1 | 9.7% | / | 0.6% | 8.8 | -22.7 | -7.1%[15.4 µM] | -1.4%
O=C(O)c1cccc(-n2nc(-c3ccc(Cl)c([N+](=O)[O-])c3)c3ccccc3c2=O)c1 | 12.9% | 9.9 | ? | -0.1 | 2.3 | -65.3%[inhibitor] | -0.1%
COc1ccc(C2C(C(C)=O)=C(O)C(=O)N2c2cccnc2)c(OC)c1 (stereo unspecified) | 6.3% | 6.6 | 4.5% | 2.0 | -8.4 | 25.4% | -3.9%
COc1ccc(NC(=O)c2cccc(S(=O)(=O)N(C)c3ccccc3)c2)cn1 | 18.2% | -0.9 | -17.6% | -20.0 | -19.0 | -4.3% | -0.8%
CN(CC(=O)Nc1ccc(F)c(F)c1F)C(=O)C1CCN(C(=O)Nc2ccccc2)CC1 | / | / | 9.3% | -0.5 | 23.3 | -48.8%[inhibitor] | -1.2%
O=C(O)c1ccc(CNC(=O)C2CCCN2C(=O)OCc2ccccc2)cc1 (stereo unspecified) | 6.3% | -5.8 | -1.8% | 14.2 | -1.1 | 0.8% | 1.9%
c1cc(C2OCCO2)cs1 | / | / | / | / | -6.1 | ? | -0.8%
C[C@@H]1CN([C@H](C)CO)C(=O)CCCn2cc(nn2)CO[C@H]1CN(C)S(=O)(=O)c1ccc(Oc2ccccc2)cc1 | / | / | / | / | 6.3 | ? | 0.3%
O=C(Nc1ccncc1)c1cc2ccccc2o1 | 8.6% | 2.0 | 7.4% | -20.6 | 4.1 | ? | -1.6%
COc1cccc(COC(=O)CSCC(=O)Nc2cccc(C)c2)c1OC | / | / | -13.1% | -11.0 | -10.1 | -10.5%[15.4 µM] | -0.2%
O=C1NCCCC1C(=O)N1CCN(C(c2ccccc2)c2ccccc2)CC1 (stereo unspecified) | 18.9% | 2.2 | -8.7% | 4.1 | -1.3 | -58.6%[inhibitor] | 0.1%
Cc1c(-c2ccc(Cl)cc2)oc(=O)c2c(N)n(-c3ccccc3)nc12 | -10.2% | -0.6 | -14.1% | 21.5 | -12.4 | -27.8% | -16.3%
c1ccc(CCNc2nc3ccccc3n3nnnc23)cc1 | 2.5% | 1.5 | 0.7% | -8.2 | 7.2 | 5.6% | -3.8%
CCN1/C(=C/c2ccc3cc(C)ccc3[n+]2CC)Sc2cc(C)ccc21 | ? | ? | -17.2% | 29.1 | -1.3 | ? | 2.4%
CCCn1c(CCC(=O)O)ccc1-c1ccc(F)cc1 | 11.8% | 1.2 | -12.8% | 3.4 | 4.9 | 4.6% | ?
COc1ccc(C2Nc3cccc4cccc(c34)N2)cc1 | 2.3% | ? | 6.4% | 1.5 | 6.2 | 20.4% | -16.3%
Cc1cc(Cl)ccc1C(=O)C1CCCN(C(=O)/C=C/c2cnn(C)c2)C1 (stereo unspecified) | 3.6% | 0.7 | -8.5% | -14.5 | -1.5 | -4.8% | 0.3%
O=C(Nc1ccc(Cl)cn1)Nc1ccccc1Cl | 5.8% | -0.6 | -3.0% | 1.3 | 0.4 | -2.8%[15.4 µM] | /
CCC(C)NC(=O)[C@@H]1CSC2c3ccccc3C(=O)N21 (stereo partly specified) | 12.0% | 0.6 | 9.6% | 8.9 | -1.9 | -5.2%[15.4 µM] | 0.2%
O=C(NCCN1CCCCC1)Nc1ccc(Br)cc1 | 18.9% | 0.0 | 7.0% | -1.4 | -9.3 | -15.3%[15.4 µM] | -0.9%
O=C(O)c1cccnc1NC1CCCC1 | 13.5% | 3.6 | 0.1% | 10.0 | 1.1 | 10.9% | -4.5%
O=C(NC1CCCCCCC1)c1cccc(S(=O)(=O)N2CCOCC2)c1 | / | / | 16.6% | -0.4 | 6.1 | 17.1% | 0.6%
CCOC(=O)Cn1c(C)c(C#N)c2ccccc21 | 4.9% | -0.9 | 8.5% | 6.9 | -5.4 | -1.7% | -1.4%
CCn1nc(C(=O)Nc2ccc3nc(C)sc3c2)c2ccccc2c1=O | 3.0% | 5.7 | 0.4% | 4.4 | -17.9 | 5.7% | 20µM*
CCN1CCN(c2ncc3c(n2)CC(c2cc(OC)c(OC)c(OC)c2)CC3=O)CC1 (stereo unspecified) | 8.4% | 5.7 | -4.2% | -3.0 | -3.6 | -2.7% | 0.5%
COC(=O)c1ccccc1NC(=O)c1ccccc1OC | -11.4% | 1.6 | -10.9% | -9.9 | -2.4 | -8.7% | 1.2%
COc1ccc(C2CC(=O)Oc3c(C(CCN4CCOCC4)c4cc(OC)c(OC)c(OC)c4)c(OC)cc(OC)c32)cc1 (stereo unspecified) | -1.9%&-3.1% | -1.9&2.3 | ? | -18.0 | -14.0 | / | 1.9%
CCCn1cnc2cc(NCc3ccc(Br)cc3)ccc21 | -9.1% | 8.9 | -7.6% | 3.6 | -16.9 | -11.5%[15.4 µM] | /
COc1ccc(CNC(=O)CSc2nnc3c(n2)[nH]c2ccc(OC)cc23)cc1 | ? | -4.2 | 10.0% | ? | 2.0 | -2.7%[15.4 µM] | /
Cc1ccc(NC(=S)/N=C(\N)Nc2nc(C)c3cc(C)c(C)cc3n2)cc1C | 11.7% | -1.3 | 2.8% | 4.7 | -11.1 | -16.3% | /
CCc1nn(CC(=O)NCCC2=CCCCC2)c(=O)c2cc3cc(F)ccc3n12 | -7.6% | / | -1.3% | 10.6 | -6.3 | -14.3% | -12.7%
Cc1nc2ccc(Br)cn2c(=O)c1Cl | 12.1% | 1.2 | 19.7% | -1.7 | ? | ? | -5.8%
O=S(=O)(c1ccc(SCc2ccc(Br)cc2)nc1)N1CCOCC1 | / | / | 24.1% | 3.3 | -3.0 | 10.3% | -1.2%
O=C(O)COc1ccc(/C=N/Nc2nc(Nc3ccccc3)nc(N3CCCCC3)n2)cc1 | 20.0% | 1.8 | 0.9% | -6.2 | -1.8 | -2.4% | /
CCOc1cccc2c1OC1(C)CC2NC(=O)N1c1cccc(C(=O)N2CCN(c3ccccn3)CC2)c1 (stereo unspecified) | 18.3% | / | -0.9% | 4.4 | 2.1 | -38.0%[inhibitor] | -6.5%
O=C(CCc1ccccc1)NC(NC(=S)Nc1cccc(Cl)c1)C(Cl)(Cl)Cl (stereo unspecified) | -13.3% | 2.1 | 1.7% | ? | -13.1 | -10.7% | -2.9%
COc1ccc(OC)c(S(=O)(=O)N2CCC(C(=O)NCc3ccccc3OC)CC2)c1 | 17.8% | 0.9 | -13.0% | 22.7 | -6.3 | ? | -12.5%
O=C(NC1CCCCC1)C(c1ccc(O)cc1)N(CC1CCCO1)C(=O)C1COc2ccccc2O1 (stereo unspecified) | 13.9% | 4.6 | -3.5% | -1.2 | -5.8 | -21.1% | -1.8%
COc1cc(NC(=O)CN2CCC(Cc3ccccc3)CC2)c(C)cc1[N+](=O)[O-] | 5.4% | 0.6 | -3.5% | -15.7 | -4.0 | 12.0% | -1.8%
O=C1Nc2ccc([N+](=O)[O-])cc2OC1CCN1CCN(Cc2ccc3c(c2)OCO3)CC1 (stereo unspecified) | 9.2% | 8.8 | ? | -4.5 | -1.7 | 12.3%[15.4 µM] | /
O=C(Cc1ccc(Br)cc1)c1ccc(O)cc1O | 22.3% | -0.9 | -1.7% | 2.6 | -20.7 | -2.3% | -4.3%
COc1cc(C(=O)CSc2nccn2C)cc(OC)c1OC | -10.6% | -3.1 | 2.0% | 0.2 | -5.2 | 8.3%[15.4 µM] | /
Cc1c(C(=O)NCCN2C(=O)S/C(=C\c3cccnc3)C2=O)cccc1[N+](=O)[O-] | 2.1% | 0.9 | -9.0% | 12.1 | -9.2 | 24.1% | -0.6%
CCN(CC)S(=O)(=O)c1ccc2oc(C(=O)NCc3ccc(C)cc3)c(C)c2c1 | 25.1µM* | 3.5 | -11.7% | -9.5 | 16.4 | 4.8% | -1.8%
Cc1ccc(-c2nnc(SCC(=O)N(CC(C)C)c3c(N)n(Cc4ccccc4)c(=O)[nH]c3=O)n2N)cc1 | 2.4% | / | -0.2% | 7.3 | -13.5 | 18.7% | -2.6%
